# Assay outcomes from PubChem.
# NS1 function inh: qHTS Assay for Inhibitors of Influenza NS1 Protein Function; S. cerevisiae slowed by influenza A NS1, growth recovery by OD600; Potency, µM (doses to about 46.1 µM), inactives show top-dose activity, positive = more growth; 270,000 compounds, 0.4% hits; AID 2326, 2010; active means well fitted rising curve with a large enough effect; inconclusive means small, poorly fitted or top-dose-only effect; inactive means no such curve, though single readings can be large or run the other way; also: nearly all actives have a fitted effect of over 50% in size
#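 Compounds were scored for reversing the slow growth caused by influenza A NS1 in S. cerevisiae, measured by optical density at 600 nm. Assay medium contained 2% galactose at pH 6.0; NS1-free yeast of the same strain were the positive control.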
# Cruzain Triton: qHTS Assay for Promiscuous and Specific Inhibitors of Cruzain (with detergent) | Potency, µM, for the others: max response, negative = inhibition, actives largely listed as inhibitors | 200,000 compounds, 0.43% hits | Cruzipain (Trypanosoma cruzi), P25779 | purified cruzain, Z-FR-AMC fluorescence, 0.01% Triton | AID 1478, 2009;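 also: plate controls were neutral wells for no effect and buffer without enzyme for full effect; nearly all actives have a fitted effect of over 40% in size; top concentration of the series not given in the record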
# Target sequence (P25779 123-467 limits assumed): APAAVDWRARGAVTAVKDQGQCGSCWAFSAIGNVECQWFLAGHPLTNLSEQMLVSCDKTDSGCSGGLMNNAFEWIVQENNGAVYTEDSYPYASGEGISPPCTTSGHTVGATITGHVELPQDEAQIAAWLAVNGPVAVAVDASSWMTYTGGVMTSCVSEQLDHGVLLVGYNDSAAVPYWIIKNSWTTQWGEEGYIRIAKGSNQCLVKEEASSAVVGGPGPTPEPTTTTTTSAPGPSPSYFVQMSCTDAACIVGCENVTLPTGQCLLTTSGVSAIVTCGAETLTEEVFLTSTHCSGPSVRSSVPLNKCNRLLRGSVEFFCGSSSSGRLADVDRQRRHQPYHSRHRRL
#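 Detergent-containing arm of a paired screen for aggregation-based inhibition: 0.01% Triton X-100 present. Cruzain at 1.5 nM cleaved 2 uM Z-FR-AMC at pH 5.5 with 5 mM DTT; AMC fluorescence gain over 60 s measured activity.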
# Lassa entry inh: qHTS for Inhibitors of binding or entry into cells for Lassa Virus; Lassa virus pseudotype entry inhibition, cell reporter; control for the full effect not named in the record; 300,000 compounds, 1.2% hits; AID 540256, 2011; Potency, µM (titrated, usually from 37.9 µM), for inactives: top-dose activity change, negative = inhibition, usual class: inhibitors; active means well fitted inhibition curve with a large enough effect; inconclusive means small, poorly fitted or top-dose-only effect, or effect the other way; inactive means flat fitted curve, though single readings scatter; tested in HEK293 cells; also: % is scaled to controls: 0 for no effect and ±100 for the full control effect; nearly all actives have a fitted effect of over 50% in size; luciferase read-out
# RE007 growth inh: qHTS Assay for Inhibitors of the HIV-1 protein Vpr. 360,000 compounds, 0.21% hits. S. pombe RE007 Vpr strain, BacTiter-Glo ATP luminescence, 24 h; control for the full effect not named in the record. AID 651644, 2012. Potency, µM (doses to about 92.2 µM), for the others: top-dose activity change, negative = less growth; active = well fitted falling curve with a large enough effect; inconclusive = small, poorly fitted or top-dose-only effect; inactive = no such curve, though single readings can be large or run the other way;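 also: % is scaled to controls: 0 for no effect and ±100 for the full control effect; nearly all actives have a fitted effect of over 50% in size; the assay follows cell death caused by Vpr and the record does not say whether a fall means rescue or toxicity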
#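 Fission yeast RE007 carrying one integrated HIV-1 vpr copy, seeded at OD 0.01 in PMG+AL medium with 23 nL pinned compound. Grown 24 h at 30 degrees; viability read by BacTiter-Glo luminescence after 5 min.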
# Marburg entry inh: qHTS for inhibitors of binding or entry into cells for Marburg Virus. 300,000 compounds, 1.8% hits. AID 540276, 2011. Potency, µM (doses to about 37.8 µM), for inactives: at the highest dose activity change, negative = inhibition, hits mostly inhibitors. Marburg virus pseudotyped entry inhibition, cell reporter; control for the full effect not named in the record; about a third of the inactives were read at about 46 µM; active = well fitted inhibition curve with a large enough effect; inconclusive = small, poorly fitted or top-dose-only effect, or effect the other way; inactive = flat fitted curve, though single readings scatter; tested in HEK293 cells; about a fifth of its hits are not listed in these tables; also: % is scaled to controls: 0 for no effect and ±100 for the full control effect; luciferase read-out
# SARS PLP yeast: qHTS of Yeast-based Assay for SARS-CoV PLP | S. cerevisiae expressing SARS-CoV PLpro, growth rescue; control for the full effect not named in the record | Potency, µM (series often up to 32.9 µM), for inactives: at the top dose activity, positive = growth rescue | 330,000 compounds, 0.19% hits | AID 485353, 2010; active means well fitted rising curve with a large enough effect; inconclusive means small, poorly fitted or top-dose-only effect; inactive means no such curve, though single readings can be large or run the other way; also: 0% is about no effect; nearly all actives have a fitted effect of over 55% in size; growth read by luminescence after 48 h
# Cruzain inh noDet: qHTS Assay for Promiscuous and Specific Inhibitors of Cruzain (without detergent). Cruzipain (Trypanosoma cruzi), P25779. purified cruzain, Z-FR-AMC fluorescence, no detergent. Potency, µM, for the others: max response, negative = inhibition, actives largely listed as inhibitors. 200,000 compounds, 2.3% hits. AID 1476, 2009;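 also: plate controls were enzyme without inhibitor for no effect and buffer without enzyme for full effect; nearly all actives have a fitted effect of over 40% in size; top concentration of the series not given in the record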
#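 Purified cruzain at 1.5 nM, pre-incubated 15 min with compound at room temperature in 100 mM sodium acetate pH 5.5, 5 mM DTT, 0.00005% Triton X-100. Reaction started with 2 uM Z-FR-AMC; AMC fluorescence increase over 60 s gives rate.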
# StopGo reporter: High Throughput Screening for Foot and Mouth Disease Virus Antivirals; 410,000 compounds, 1.2% hits; Potency, µM (series often up to 57.9 µM), without a hit: at the top dose signal change, negative = less light; human cells with a luciferase reporter of 2A StopGo recoding; control for the full effect not named in the record; active = well fitted falling curve with a large enough effect; inconclusive = small, poorly fitted or top-dose-only effect; inactive = no such curve, though single readings can be large or run the other way; tested in HEK293T cells; also: % is scaled to controls: 0 for no effect and ±100 for the full control effect; nearly all actives have a fitted effect of over 45% in size; luciferase light after 4 h
# An asterisk follows results filed as active; ? = inconclusive; · = no result given; [ ] = remark or other dose. Unless noted, calls follow the shape of the dose curve; as a rule, active = well fitted curve in the direction sought with a large enough effect; inconclusive = small, poorly fitted or top-dose-only effect, or another doubt; inactive = no such curve, though single readings can be large; an effect the other way counts as inactive or inconclusive. Potency is read from the fitted curve at half-maximal effect.
SMILES,NS1 function inh,Cruzain Triton,Lassa entry inh,RE007 growth inh,Marburg entry inh,SARS PLP yeast,Cruzain inh noDet,StopGo reporter
CN=C(C)C1=C(O)C(C(=O)OC)C(C)(C)CC1=O (stereo unspecified),5%,4.7%,7%,14%,5%,2%,-4%,-1%
CC(C)NC(C)Cc1ccc(I)cc1 (stereo unspecified),3%,-7.8%,9%,-7%,16µM*,·,5%,-21%
O=C(NCc1cccs1)c1cc(S(=O)(=O)N2CCCCC2)ccc1Cl,-3%,5.2%,-2%,-10%,5%,?,23%,·
Cc1ccc(C(=O)Nc2cccnc2Oc2ccc(Cl)cc2)cc1,-8%,·,-29%[46.1 µM],3%,-2%[46.1 µM],-3%,·,21%
CCCC(=NCC(=O)O)C1=C(O)C(C(=O)OC)C(C)(C)CC1=O (stereo unspecified),-32%,1.8%,6%,-12%,8%,-1%,4%,-11%
O=C(NCc1ccccc1)C1CCN(S(=O)(=O)c2ccc(N3CCCC3=O)cc2)CC1,16%,·,?,9%,?,1%,·,-21%
Cc1ccc(/C=N/NC(=O)c2cc(-c3ccncc3)nc3ccccc23)o1,-7%,·,-8%[46.1 µM],-4%,?,-6%,·,-16%
COc1ccc(NC(=O)c2cc3c(=O)n(C)c4cc(Cl)ccc4c3s2)cc1Cl,·,-0.4%,17%[46.1 µM],·,·,·,-5%,-1%
Cc1cc(C)cc(OCC(=O)Nc2nc(-c3ccc(F)cc3)ns2)c1,·,2.4%,13%[46.1 µM],·,-9%[46.1 µM],·,-3%,-10%
CCOC(=O)N1CCN(C(=O)CN2C(=O)COc3ccc(C)cc32)CC1,3%,3.8%,-2%,10%,?,2%,-8%,8%
COc1ccc(C(=O)NCc2ccc3c(c2)CCO3)cc1,-5%,·,·,8%,·,0%,·,-4%
COc1ccc(C(=O)OCC(=O)NC2CCCC2)c(OC)c1OC,0%,·,20%[46.1 µM],-19%,23%[46.1 µM],-1%,·,7%
CC(C)c1ccc(C2=CC(c3cccc(Cl)c3)n3ncnc3N2)cc1 (stereo unspecified),·,-4.9%,-22%[46.1 µM],·,·,·,0%,-14%
COc1ccc(C(=O)Nc2nnc(CCc3ccccc3)s2)c(OC)c1,-1%,·,·,17%,·,-7%,·,-7%
N#Cc1cccc(Cn2nnc(-c3ccccc3)n2)c1,-13%,-2.9%,0%,-4%,?,-3%,3%,0%
COc1ccc(C(C)(C)C)cc1NC(=O)CCCn1c(=O)oc2ccccc21,-17%,-6.5%,-3%,18%,-8%,15%,?,?
COc1ccc(CN2CCN(C(=O)c3ccco3)CC2)cc1,0%,3.4%,-2%,7%,-17%,5%,-3%,?
CCc1nc2ccccc2n2c(-c3ccccc3)c3c(=O)n(C)c(=O)n(C)c3c12,·,-0.6%,-4%[46.1 µM],·,-2%[46.1 µM],·,-2%,0%
CO/N=C/C(C#N)=C/c1cc(C(=O)c2ccc(F)cc2)cn1C,5%,·,?,-9%,?,2%,·,-19%
Cc1onc(-c2c(Cl)cccc2Cl)c1C(=O)Nn1cnnc1,1%,0.1%,2%,-2%,19%,0%,3%,-11%
O=C1c2ccccc2CCc2ccccc21,·,·,-13%,-9%,1%,·,·,9%
Cc1cc(=O)c(C(=O)O)cn1Nc1ccc(F)cc1,3%,6.2%,-5%,2%,-7%,7%,-6%,-15%
Cn1nnc(-c2ccc(OCc3ccccc3F)cc2)n1,2%,-4.4%,?,-9%,?,2%,-6%,24%
CC/C(=N\n1nnnc1Nc1ccccc1)c1ccccc1,-12%,-2.7%,3%,0%,0%,-23%,-8%,-1%
COc1ccc(-c2nc3ccccc3n2Cc2ccc(Cl)cc2)cc1,·,6.0%,?,·,?,·,29%,-25%
Cc1ccc(SCC(=O)c2c(C)nc3ccccn23)cc1,·,·,26%[46.1 µM],-2%,?,-7%,·,-22%
Cc1ccc(N2CCn3c2nc2c3c(=O)n(CCc3ccccc3)c(=O)n2C)cc1C,·,-8.4%,-19%[46.1 µM],·,·,·,8%,-5%
COc1cccc(-c2cccc(NC(=O)C3CCN(CC4CCOC4)CC3)c2)c1 (stereo unspecified),-15%,·,20%[46.1 µM],5%,?,-3%,·,30%
COc1ccccc1C(=O)NNC(=S)Nc1ccccc1,-2%,·,-17%[46.1 µM],14%,?,1%,·,16%
Nc1c2nc(-c3ccccc3)[nH]c(=O)c2nc(=O)n1-c1ccccc1,-1%,·,·,11%,·,-6%,·,?
CCOC(=O)N1CCN(C(=O)c2ccc([N+](=O)[O-])cc2Cl)CC1,5%,·,13%,-3%,5%,15%,·,-12%
N/C(=N\OC(=O)c1cccc2ccccc12)c1cccnc1,-1%,·,-15%,-1%,?,0%,·,52%[activator]
Cc1ccc(C(=O)CSc2nc(-c3ccccc3)nc3c2CCCC3)cc1C,·,-2.2%,20%[46.1 µM],·,11%[46.1 µM],·,-8%,-3%
Cc1cc(NC(=O)NC2(C(F)(F)F)Oc3ccc(Cl)cc3O2)no1 (stereo unspecified),-36%,-3.1%,?,-6%,?,-13%,?,-19%
O=C(Cc1c(F)cccc1Cl)Nc1ccc(S(=O)(=O)N2CCOCC2)cc1,14%,·,11%,2%,4%,7%,·,-7%
CC(CCc1ccccc1)NC(=O)CN1CCN(c2ccc(O)cc2)CC1 (stereo unspecified),·,·,?,-3%,0%,-1%,·,5%
NC(Cc1c[nH]c2ccccc12)C(=O)NCc1ccco1 (stereo unspecified),1%,·,·,1%,·,0%,·,-7%
O=C(Nc1cnc2ccccn2c1=O)c1ccc(Cl)cc1,-16%,-0.3%,6%,-5%,?,3%,1%,50%[activator]
c1ccc(Oc2ccccn2)cc1,·,·,-3%[46.1 µM],1%,-16%[46.1 µM],·,·,-19%
CC(C)n1nc(C(=O)OCC(=O)N(C)C2CCS(=O)(=O)C2)c2ccccc2c1=O (stereo unspecified),-1%,2.9%,-1%,-3%,6%,2%,-13%,7%
COc1ccccc1/C=C/C(=O)OCC(=O)NCc1ccco1,-5%,-5.2%,-1%,-8%,2%,14%,-1%,-9%
O=C(CSc1nc(-c2cccc(F)c2)[nH]c1-c1ccccc1)Nc1ccc2c(c1)OCO2,·,-6.0%,?,·,?,·,?,?
CC1Oc2ccccc2N(CC(=O)N2CCCCCC2)C1=O (stereo unspecified),19%,·,1%[46.1 µM],2%,17%[46.1 µM],-1%,·,-2%
CCc1n[nH]c(CCN)n1,-2%,·,17%,2%,-5%[46.1 µM],0%,·,-5%
O=P(O)(Oc1ccccc1)OC(c1ccccc1)C(F)(F)F (stereo unspecified),·,·,28%,-14%,16%[46.1 µM],8%,·,13%
COC(CN(C)S(=O)(=O)c1cc2c3c(c1)CCC(=O)N3CCC2)OC,3%,·,·,1%,·,-4%,·,4%
CC1C=CCC2C(=O)N(c3cc(Cl)ccc3O)C(=O)C12 (stereo unspecified),-3%,·,·,-12%,·,1%,·,-16%
CCOc1ccc(NC(=O)CSc2nnc(Cn3cnc([N+](=O)[O-])n3)n2C)cc1,-2%,-1.1%,?,0%,-5%,17%,-1%,15%
Cc1cc(-c2ccc(C)c(S(=O)(=O)NCC3CCN(Cc4cccc(F)c4)CC3)c2)on1,-15%,·,·,-9%,·,3%,·,17%
COc1ccccc1/C=N/OC(=O)c1ccc(C)cc1,-48%,·,?,-6%,·,-4%,·,52%[activator]

# Next part.
SMILES,NS1 function inh,Cruzain Triton,Lassa entry inh,RE007 growth inh,Marburg entry inh,SARS PLP yeast,Cruzain inh noDet,StopGo reporter
O=C(CN1CCN(c2ccccc2)CC1)c1c[nH]c2ccccc12,-3%,·,5%,-14%,?,-3%,·,-9%
CCn1nnnc1SCC(=O)Nc1nc(-c2cccs2)cs1,2%,-5.1%,-8%,9%,-5%[46.1 µM],23%,-12%,-13%
CCC(C)(C)NC(=O)c1cccc(NC(=O)C(C)C)c1,-5%,·,-4%,-14%,-3%[46.1 µM],-2%,·,0%
CC(C)(C)C(=O)OCc1cn(-c2ccc(Cl)cc2)nn1,-19%,-0.7%,-3%,-8%,5%,-1%,3%,43%[activator]
CS(=O)(=O)c1ccc(Cl)c(NC(=O)COC(=O)c2ccc(S(=O)(=O)N3CCCC3)cc2)c1,·,·,1%,7%,15%,-2%,·,-6%
Cc1nnc(N2C(=O)C(O)=C(C(=O)c3ccco3)C2c2ccc(F)cc2)s1 (stereo unspecified),-21%,-0.8%,·,1%,-1%,7%,-2%,-25%
O=c1[nH]c(=O)n(C2CCCCCC2)c(O)c1C=NCc1cccnc1,-3%,·,-1%,-2%,-8%,0%,·,-4%
COc1cccc(C(=O)NNS(=O)(=O)c2ccc(F)cc2)c1,2%,·,·,9%,·,6%,·,13%
CC1(C)CCCN(C(=O)c2ccc3c(c2NCCO)C(=O)c2ccccc2C3=O)C1,-12%,-12%,?,-9%,?,-5%,?,?
CCCOc1ccc(CSc2ncn[nH]2)cc1,-11%,-4.4%,-6%,-21%,7%,-4%,-2%,26%
CCC1CCCCN1S(=O)(=O)c1c(C)n(C)c(=O)n(C)c1=O (stereo unspecified),·,·,9%,0%,24%,6%,·,-16%
COc1ccc([N+](=O)[O-])cc1N(CC1CO1)S(=O)(=O)c1ccc(C)cc1 (stereo unspecified),-2%,·,-18%[46.1 µM],-15%,?,-1%,·,3%
CC(=O)Nc1cccc(OCCCOc2cccc([N+](=O)[O-])c2)c1,·,·,-5%,16%,-10%,·,·,5%
COc1ccc(-c2nsc(NC(=O)c3oc4ccc(Cl)cc4c3C)n2)cc1,·,4.1%,16%[46.1 µM],·,-9%[46.1 µM],·,10%,-10%
CN1CCN(c2ccc(CNS(=O)(=O)c3cccc(F)c3)cc2)CC1,2%,·,·,4%,·,0%,·,7%
